Compound activity deposited in PubChem BioAssay by National Center for Advancing Translational Sciences (NCATS).
CtBP-E1A blk: blocks the CtBP interaction with E1A; 340,000 tested, 0.49% active; activity change, % (test concentration not listed); AlphaScreen GST-E1A/His-CtBP binding, 1536-well; active compounds read low; control for the full effect not named in the record; in the data active means activity change below about -65%; inconclusive means about -30% to -65%; inactive means above about -30%; also: % is scaled to controls: 0 for no effect and ±100 for the full control effect
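In 5 uL wells, 23 nL compound meets equimolar GST-E1A and His-CtBP (5X stock 125 nM each) for 2 h, 37 °C. Beads (5X, 50 ug/mL) then 1 h, 37 °C, dark.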
TRPML1 blocker: inhibitors of human TRPML1 channel | 390,000 tested, 0.02% active | activity change, negative = inhibition, % (test concentration not listed) | AID 624415 | Q9GZU1 | TRPML1-inducible cells, Ca2+ dye fluorescence, FDSS; active compounds read low; inhibition of EC80 agonist-evoked calcium signal; in the data active means activity change below about -50%; inconclusive means about -30% to -50%; inactive means above about -30%;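 also: stimulus is agonist 54-4 at its EC80 concentration; % is scaled to controls: 0 for no effect and ±100 for the full control effect; compound concentration not given in the record; the text of the record puts the active cut at -80%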
Target sequence (Q9GZU1 whole entry, looked up): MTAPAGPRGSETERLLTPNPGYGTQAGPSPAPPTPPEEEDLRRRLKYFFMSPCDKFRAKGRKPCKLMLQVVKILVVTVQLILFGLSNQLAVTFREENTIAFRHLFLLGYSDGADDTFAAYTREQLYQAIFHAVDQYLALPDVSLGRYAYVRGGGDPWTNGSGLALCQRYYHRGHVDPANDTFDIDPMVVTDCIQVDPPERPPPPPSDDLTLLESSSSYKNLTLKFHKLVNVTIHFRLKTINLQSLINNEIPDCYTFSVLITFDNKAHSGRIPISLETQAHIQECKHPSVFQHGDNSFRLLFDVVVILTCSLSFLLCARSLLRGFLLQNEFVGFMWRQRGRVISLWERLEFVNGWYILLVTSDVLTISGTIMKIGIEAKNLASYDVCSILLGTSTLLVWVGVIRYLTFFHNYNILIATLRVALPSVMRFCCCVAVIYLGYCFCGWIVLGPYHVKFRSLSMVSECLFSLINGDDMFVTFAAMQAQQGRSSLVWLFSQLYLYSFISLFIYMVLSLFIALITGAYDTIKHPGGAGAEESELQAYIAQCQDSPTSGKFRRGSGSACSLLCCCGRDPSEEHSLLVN
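TRPML1-DL cells, Tet-induced overnight (~16 h, 37 °C) at 1,500 cells/well, were loaded with Ca8 no-wash dye plus quencher for 45-90 min at room temperature. Compounds were pinned during FDSS kinetic reading; agonist 54-4 at EC80 (4 uM final) then added.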
Six1-Eya2 inh: inhibitors of human Six1/Eya2 interaction | Q15475+O00167 | AlphaScreen GST-Six1/His-Eya2 binding, biochemical; active compounds read low; control for the full effect not named in the record | activity change, % (no concentration beside the values) | 360,000 tested, 0.56% active | AID 651725; in the data active = activity change below about -65%; inconclusive = about -30% to -65%; inactive = above about -30%; also: % is scaled to controls: 0 for no effect and ±100 for the full control effect
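GST-Six1 + His-Eya2 (5X stock: 250/500 nM); Tris pH 8.0, 300 mM NaCl, 0.05% BSA, 0.02% Tween 20; GSH donor/Ni acceptor beads; 1 h 37 °C dark; AlphaScreen readout.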
D2 PAM: potentiates the human D2 dopamine receptor allosterically; DiscoveRx D2 beta-arrestin cells, luminescence, 90 min; 100% = 57 uM dopamine signal; potentiation, % (no concentration beside the values); AID 624464; 360,000 tested, 0.23% active; active = potentiation of 50% or more; inconclusive = 30% to 50%; inactive = 30% or less;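 also: compound concentration not given in the record; tested on top of an EC20 dose of dopamine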
Target sequence (P14416 whole entry, looked up): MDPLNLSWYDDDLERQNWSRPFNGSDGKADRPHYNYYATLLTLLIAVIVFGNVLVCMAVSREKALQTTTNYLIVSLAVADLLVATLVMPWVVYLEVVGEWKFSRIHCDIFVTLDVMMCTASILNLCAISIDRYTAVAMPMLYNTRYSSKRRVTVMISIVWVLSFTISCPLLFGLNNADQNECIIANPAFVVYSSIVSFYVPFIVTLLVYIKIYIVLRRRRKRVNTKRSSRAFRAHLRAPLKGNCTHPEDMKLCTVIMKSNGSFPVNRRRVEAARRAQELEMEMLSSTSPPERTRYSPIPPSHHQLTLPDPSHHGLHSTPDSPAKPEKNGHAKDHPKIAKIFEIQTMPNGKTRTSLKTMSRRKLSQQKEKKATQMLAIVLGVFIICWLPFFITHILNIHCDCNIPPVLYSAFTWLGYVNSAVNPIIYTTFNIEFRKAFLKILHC
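PathHunter beta-arrestin assay in DiscoveRx D2 cells. Compounds were added with an EC20 of dopamine (50 nM final) for 90 min at 37 deg C. Luminescence was read 1 h after detection reagent, with 57 uM dopamine as the EC100 control.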
TRPV1 potentiator: potentiators of human vanilloid receptor 1 (TRPV1); Q8NER1; TRPV1-expressing cells, Fluo-8 calcium influx, capsaicin EC20 potentiation; host cell line not named in the record; control for the full effect not named in the record; potentiation, % at 8.33 µM; 320,000 tested, 0.02% active; active means potentiation above 80%; inconclusive means 30% to 80%; inactive means below 30%; also: 0% is about no effect
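TRPV1-expressing cells were cultured overnight at 35.5C and loaded with Fluo-8 calcium dye for 40 to 90 min at room temperature. After a 10 s baseline, compound was added and calcium influx was read kinetically for 3 min (ex 480/em 520 nm).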
TRPML1 agonist: activates the human TRPML1 channel | Q9GZU1 | TRPML1-expressing cells, Ca2+ dye fluorescence, FDSS; host cell line not named in the record; reference of the full effect not given here | activation, % (concentration not given with the values) | 410,000 tested, 0.12% active | AID 624414; in the data active = activation above about 50%; inconclusive = about 30% to 50%; inactive = below about 30%; also: 0% is about no effect; the text of the record puts the active cut at 80%
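Calcium fluorescence on an FDSS kinetic reader gave the read-out. Tet-induced TRPML1-DL cells were plated overnight, dye-loaded (Ca8 with quencher, 45-90 min, room temperature, dark), then read 110 s after compound addition, and again 110 s after 4uM final 54-4 (EC80).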
Active calls of the source: *; ? = inconclusive; nt = not tested or not shown; & = joins results of further samples.

SMILES	CtBP-E1A blk	TRPML1 blocker	Six1-Eya2 inh	D2 PAM	TRPV1 potentiator	TRPML1 agonist
COc1ccc(C2OC(=O)C(C)(C)C(=O)C2(C)C)cc1OC (stereo not drawn)	nt	8	4	-1	10	0.6
CC1(C)Cc2c(cnn2-c2ccc(F)cc2)C(NC(=O)Cn2cncn2)C1 (stereo not drawn)	6	2	1	-20	15	0.0
c1cncc(-c2noc(-c3cccc4ccccc34)n2)c1	16	2	16	1	26	-0.7
O=C1NC(=O)N(c2ccccc2)C1=O	-1	-8	11	-7	7	0.6
COc1ccc(CNC(=O)OCCN2CCN(Cc3ccccc3)CCC2=O)cc1	-1	5	4	-11	12	-0.5
Nn1cnc2scc(-c3cccs3)c2c1=O	0	18	21	-5	3	0.0
COC(=O)c1ccccc1C(=O)N1CCC(CCC(=O)NC2CC2)CC1	6	-5	0	-9	3	-1.0
O=C(Cn1c(NCCO)nc2ccccc21)c1ccc([N+](=O)[O-])cc1	-5	5	-2	-3	?	-0.2
CC1CCCCC12NC(=O)N(CC(=O)c1ccc3c(c1)OCO3)C2=O (stereo not drawn)	0	24	0	-1	4	0.1
O=C(Nn1c(-c2ccncc2)nc2ccccc2c1=O)c1ccccc1Br	-10	-8	-15	1	5	-0.3
CC(=O)c1ccc(NC(=O)C(C)OC(=O)c2ccc(NS(=O)(=O)c3ccc(F)c(F)c3)cc2)cc1 (stereo not drawn)	-7	11	-5	-19	22	0.1
Cc1ccc(NCc2nnc(SCC(=O)Nc3ccccc3)n2CC2CCCO2)c(C)c1 (stereo not drawn)	-7	-1	-10	-8	11	0.1
COC(=O)CCc1sc(Nc2ccc(Br)cc2)nc1-c1ccc(OC)cc1	-7	10	-2	-16	-10	-0.4
COc1ccc(C(=O)NCCc2nnc(SCC(=O)Nc3ccccc3C(C)C)n2C)cc1	6	-3	1	14	16	0.1
CCOC(=O)C1CCCN(CC(=O)c2c[nH]c3ccc(C)cc23)C1 (stereo not drawn)	-1	-8	0	-17	-2	1.6
C/C(CCc1ccccc1)=N/NC(=O)C(=O)NC(C)c1ccccc1 (stereo not drawn)	17	16	-2	16	7	-0.5
COC(=O)c1cc(C#N)c(Oc2ccccc2)nc1C	2	40	8	-14	nt	0.6
Nc1nc2ccccc2n1C(=O)c1ccc(F)cc1	-8	-1	9	-13	-2	1.6
Nc1o[nH]c(=O)c1C1CCCCC1	-15	25	6	-3	nt	0.9
Cc1ccnc2nc(C(=O)NCCc3ccc(F)cc3)nn12	-1	-7	7	-4	-1	0.4
C=CCNC(=O)C(=O)NN=C1CCN(C)CC1	3	-3	7	-15	2	0.6
CCOC(=O)C1(CC2CCCCO2)CCN(C(=O)Nc2ccccc2)CC1 (stereo not drawn)	1	2	2	0	10	-0.4
O=C(Nc1ccc(N2CCOCC2)cc1)c1ccc([N+](=O)[O-])cc1	0	-6	7	8	-17	-0.1
CCN(CC)c1nc(C#N)cc(-c2ccc(OC)cc2)n1	107	-5	118	6	0	-0.2
c1ccc(CSc2ccc3nnc(-c4ccccn4)n3n2)cc1	-19	13	?	4	9	0.0

A stretch from further up, for reference:
SMILES	CtBP-E1A blk	TRPML1 blocker	Six1-Eya2 inh	D2 PAM	TRPV1 potentiator	TRPML1 agonist
CC1(C)Cc2c(cnn2-c2ccc(F)cc2)C(NC(=O)Cn2cncn2)C1 (stereo not drawn)	6	2	1	-20	15	0.0
c1cncc(-c2noc(-c3cccc4ccccc34)n2)c1	16	2	16	1	26	-0.7

Back to the main list; the six compounds before the break are reprinted first.
SMILES	CtBP-E1A blk	TRPML1 blocker	Six1-Eya2 inh	D2 PAM	TRPV1 potentiator	TRPML1 agonist
Cc1ccnc2nc(C(=O)NCCc3ccc(F)cc3)nn12	-1	-7	7	-4	-1	0.4
C=CCNC(=O)C(=O)NN=C1CCN(C)CC1	3	-3	7	-15	2	0.6
CCOC(=O)C1(CC2CCCCO2)CCN(C(=O)Nc2ccccc2)CC1 (stereo not drawn)	1	2	2	0	10	-0.4
O=C(Nc1ccc(N2CCOCC2)cc1)c1ccc([N+](=O)[O-])cc1	0	-6	7	8	-17	-0.1
CCN(CC)c1nc(C#N)cc(-c2ccc(OC)cc2)n1	107	-5	118	6	0	-0.2
c1ccc(CSc2ccc3nnc(-c4ccccn4)n3n2)cc1	-19	13	?	4	9	0.0
COC(=O)c1ccc(Nc2nnc(-c3ccc(C)c(S(=O)(=O)NCC4CCCO4)c3)c3ccccc23)cc1 (stereo not drawn)	-16	-10	-15	-2	7	-0.8
CCCCCCCCC(=O)Nc1cc(C)ccc1OC	29	11	50	-14	2	1.7
CCN(CC)CCN(C(=O)c1ccc2ccccc2c1)c1nc2ccc(OC)cc2s1	nt	35	-5	-23	3	0.6
O=C(CN1C(=O)NC2(CCOc3ccccc32)C1=O)Nc1ccc(Br)cc1F (stereo not drawn)	nt	-3	-7	1	-13	1.2
CCOCCCNS(=O)(=O)c1ccc2c(c1)CCN2C(C)=O	2	0	1	0	-4	0.2
Cc1cn(C2OC[C@@H](O)[C@@H]2CO)c(=O)[nH]c1=O (stereo partly drawn)	nt	8	-1	-3	3	1.1
Cc1ccc(NC(=O)CCS(=O)(=O)c2ccccc2)cc1S(=O)(=O)N1CCOCC1	-3	17	-1	1	-3	-0.1
O=C(COc1ccccc1[N+](=O)[O-])N(Cc1ccco1)C1CCS(=O)(=O)C1 (stereo not drawn)	3	17	6	-8	3	-1.3
O=C(O)c1cccc2c1C(=O)c1cc([N+](=O)[O-])cc([N+](=O)[O-])c1-2	-4	-4	-29	8	nt	0.4
CCOCCCNC(=O)CN1C(=O)COc2ccc(S(=O)(=O)N3CCC(C)CC3)cc21	-11	12	5	-10	-17	-1.0
Cc1ccc2oc(-c3ccco3)nc2c1	0	-9	4	14	-3	-1.0&-0.9
COc1ccc(C)cc1S(=O)(=O)N1CCN(C(=O)c2ncoc2-c2ccc(C)cc2)CC1	-1	6	3	-2	?	1.6
Cc1ccc(S(=O)(=O)NNC(=O)C2CC=CCC2C(=O)O)cc1 (stereo not drawn)	-1	1	-4	-7	0	-0.1
COc1cc(OC)c(OC)cc1CN1CCN(c2ccccc2OC)CC1	-7	2	-3	-21	-10	-0.3
Brc1ccccc1OCCN1CCCC1	-2	36	2	-5	nt	1.5
O=C(NC1CCSC1)c1cccc(Cl)c1 (stereo not drawn)	0	-9	9	-8	-28	-0.2
COc1ccccc1N1CCN(C(=O)CCCC2=NS(=O)(=O)c3ccccc3N2)CC1	3	-2	-4	-8	9	-1.0
CCOC(=O)c1ccc(NC(=S)N(CCN(C)C)C(C)c2ccncc2)cc1 (stereo not drawn)	nt	-11	1	-8	-5	0.1
CS(=O)(=O)N(CC(=O)Nc1ccccc1F)C1CCCCC1	8	27	5	1	22	0.4
O=C(NC1CCN(Cc2ccccc2)CC1)c1[nH]c(C(F)(F)F)nc1-c1ccccc1	-19&0	nt	-25&-21	-4&-1	nt	0.1&-0.2
O=[N+]([O-])c1ccc(/C=C2\CCC(C3=CCCC3)=C2N2CCOCC2)cc1	15	0	1	?	-20	-0.6
O=C(Nc1ccc2nc(-c3cccs3)[nH]c2c1)c1cccs1	?	-12	?	10	5	-0.7
COC(=O)c1ccc(N2C(=O)CC(N3CCN(C(=O)c4ccco4)CC3)C2=O)cc1 (stereo not drawn)	-1	20	6	7	-5	-0.2
O=C(CCCn1c(=O)c2ccccc2n(CC(=O)N2CCN(c3ccccc3)CC2)c1=O)NCc1ccco1	-5	5	-1	-1	9	1.6
COC(=O)c1ccc(NC(=O)CN2CCN(CC#N)CC2)cc1	9	11	6	-3	3	-1.7

(continued)
SMILES	CtBP-E1A blk	TRPML1 blocker	Six1-Eya2 inh	D2 PAM	TRPV1 potentiator	TRPML1 agonist
CC(=O)c1cccc(NC(=O)C2CCCN2S(=O)(=O)c2ccccc2C(F)(F)F)c1 (stereo not drawn)	-12	-2	8	-10	nt	-0.1
CC(C)c1cc(C(=O)O)c2ccccc2n1	9	nt	4	-1	8	nt
CCN(CC)S(=O)(=O)c1ccc2c(c1)nc(SCC(=O)N(C)C1CCS(=O)(=O)C1)n2CC (stereo not drawn)	4	-7	2	-5	-3	1.6
O=[N+]([O-])c1ccc(CN2CCOCCOCCN(Cc3ccc([N+](=O)[O-])cc3)CCOCC2)cc1	-13	27	-15	-4	-15	0.7
CCCOc1ccc(F)cc1-c1cc(C(=O)NCc2ccccc2OC)[nH]n1	-9	nt	-3	-9	nt	0.1
C=CCOc1ccc(C2=NO[C@@H]3[C@@H]4C[C@@H]([C@H]5C(=O)N(C)C(=O)[C@@H]45)[C@H]23)cc1	nt	1	-5	1	26	0.6
CCOc1ccc(N(CC(=O)NC2CCCCC2)S(=O)(=O)c2c(C)noc2C)cc1	5	-24	8	-6	21	-0.1
O=c1c([N+](=O)[O-])cccn1Cc1ccccc1Cl	9	7	4	2	1	-0.2
CN1Cc2cccc3c2C(Cc2ccccc2S3)C1 (stereo not drawn)	-1	26	-13	-34	15	3.4
O=C1CC(c2ccccc2)c2ccccc21 (stereo not drawn)	10	-3	3	-2	28	0.8
O=C(N/N=C/c1ccc(Cl)cc1)c1cc2c(s1)-c1ccccc1CC2	0	-4	2	-14	15	7.5
CC1(C(=O)Nc2ccc3ccccc3c2)CCC(=O)N1CC(F)(F)F (stereo not drawn)	-24	nt	5	-9	nt	-0.2
CCOC(=O)c1cc2sccc2n1CCCN1C(=O)c2ccccc2C1=O	29	-3	3	-10	-1	3.2
CCn1ncc(Br)c1C(=O)Nc1nccs1	-3	1	-2	-11	25	0.2
O=C(C1Cc2ccccc2O1)N1CCCCC1 (stereo not drawn)	5	2	0	-7	3	0.8
O=C(COC(=O)c1ccco1)NCc1ccc(Cl)cc1Cl	-3	-2	4	-12	nt	0.7
CC1(C(=O)Nc2cccc3ccccc23)CCN1C(=O)Cc1ccc(Cl)cc1Cl (stereo not drawn)	-3	nt	5	-8	nt	-0.2
Cc1cc(N2CC34C=CC(O3)C(C(=O)O)C4C2=O)no1 (stereo not drawn)	-14	14	-15	-3	16	-0.1
CCCS(=O)(=O)c1nc(S(=O)(=O)c2ccc(C)cc2)c(NCCCN(C)C)s1	5	14	-3	-18	2	2.1

Entries of single compounds as entered above.
Record of CC1(C(=O)Nc2ccc3ccccc3c2)CCC(=O)N1CC(F)(F)F (stereo not drawn) → CtBP-E1A blk: -24; TRPML1 blocker: nt; Six1-Eya2 inh: 5; D2 PAM: -9; TRPV1 potentiator: nt; TRPML1 agonist: -0.2
Record of CC(C)c1cc(C(=O)O)c2ccccc2n1 → CtBP-E1A blk: 9; TRPML1 blocker: nt; Six1-Eya2 inh: 4; D2 PAM: -1; TRPV1 potentiator: 8; TRPML1 agonist: nt
Record of O=C(N/N=C/c1ccc(Cl)cc1)c1cc2c(s1)-c1ccccc1CC2 → CtBP-E1A blk: 0; TRPML1 blocker: -4; Six1-Eya2 inh: 2; D2 PAM: -14; TRPV1 potentiator: 15; TRPML1 agonist: 7.5
